Screens deposited in PubChem by Broad Institute.
rRNA inh HTS: inhibitors of bacterial rRNA selective over humanized ribosomes; E. coli WT GFP vs humanized-ribosome RFP mutants, fluorescence, 24 h; stronger effect = lower value; DMSO median 0, no signal -100; GFP signal change (wild-type ribosome), % (concentration not given with the values); actives 1.6% (n = 350,000); AID 720706;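 active = significant combined selectivity score with lowered wild-type GFP, culture density cut under 30%, mutant RFP and density less affected; inactive = any of these conditions unmet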; also: one replicate is shown; some compounds called inactive have numbers as strong as hits
MLL AF4-AF9 inh: blocks AF4 peptide binding to human AF9. inhibition, % at 10 µM. P42568. AlphaScreen, biotin-AF4 peptide binding to FLAG-AF9. actives 0.47% (n = 350,000);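 active = every replicate reaching a set inhibition limit, whatever the replicate mean, cut at about 25% in these data; inconclusive = mean inhibition reaches that limit but some replicates miss it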;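 also: 0% = plate neutral control median and 100% = total signal loss; the record names both 10 and 1 µM as test concentration; the first replicate is given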
Target sequence (P42568 whole entry, looked up): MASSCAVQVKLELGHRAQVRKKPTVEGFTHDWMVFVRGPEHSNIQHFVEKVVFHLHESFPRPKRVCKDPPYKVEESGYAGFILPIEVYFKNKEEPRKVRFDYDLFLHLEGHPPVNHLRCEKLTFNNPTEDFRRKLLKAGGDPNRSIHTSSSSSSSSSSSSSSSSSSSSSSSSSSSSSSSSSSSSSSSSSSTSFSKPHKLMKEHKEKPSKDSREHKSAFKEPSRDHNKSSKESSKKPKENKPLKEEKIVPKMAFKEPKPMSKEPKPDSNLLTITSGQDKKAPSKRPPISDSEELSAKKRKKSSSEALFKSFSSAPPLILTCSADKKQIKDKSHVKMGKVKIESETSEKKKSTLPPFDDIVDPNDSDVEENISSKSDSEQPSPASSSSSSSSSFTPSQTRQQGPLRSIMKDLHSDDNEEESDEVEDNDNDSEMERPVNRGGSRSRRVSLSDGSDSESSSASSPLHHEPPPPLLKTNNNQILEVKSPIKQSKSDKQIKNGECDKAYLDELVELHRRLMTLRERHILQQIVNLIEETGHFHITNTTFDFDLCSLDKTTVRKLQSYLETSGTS
rRNA inh HTS OD600: second read-out of rRNA inh HTS, no call of its own (marks repeat the call); OD600 change, %; measured here: OD600 growth;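 optical density of the mix in the first replicate; 0 = DMSO median and -100 = no signal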
rRNA inh HTS RFP: also measured in rRNA inh HTS; calls as there; RFP signal change, %; measured here: RFP humanized mutant strains;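 first replicate; 0 = DMSO median and -100 = no signal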
* hit, by the source's call; ? = inconclusive; & = joins results of further samples. Some of the compounds tested. The share of hits here may be higher or lower than overall.

SMILES	rRNA inh HTS	rRNA inh HTS OD600	rRNA inh HTS RFP	MLL AF4-AF9 inh
C[C@H]1CCCCO[C@H](CN(C)S(=O)(=O)c2ccc(Cl)cc2)[C@@H](C)CN([C@@H](C)CO)C(=O)c2cc(NC(=O)CCC(F)(F)F)ccc2O1	1	3	2.0	-0.9
CCCC(=O)Nc1ccc2c(c1)C(=O)N(C)[C@@H]1CC[C@H](CC(=O)NCc3cccc(F)c3)O[C@H]1CO2	-2	-4	-1.7	-1.6
CS(=O)(=O)Nc1cccc(NC(=O)C2Cc3c(-c4cccc(F)c4)ccnc3O2)c1 (configuration not stated)	3	-4	0.6	1.4
COC(=O)C[C@H]1CC[C@H]2[C@@H](COc3ccc(NC(=O)C4CCOCC4)cc3C(=O)N2C)O1	0	-1	1.0	-3.0
C[C@H]1CN([C@@H](C)CO)C(=O)c2cc(C3=CCCC3)cnc2O[C@H]1CN(C)S(=O)(=O)c1cn(C)cn1	5	9	-0.5	-4.7
CCCNC(=O)Nc1ccc2c(c1)C(=O)N(C)[C@@H]1CC[C@@H](CC(=O)NCc3ccccc3)O[C@@H]1CO2	0	-7	-0.9	-11
COc1ccc2c3c([nH]c2c1)[C@H](CO)N(C(=O)CN1CCOCC1)CC31CN(C(C)=O)C1	3	3	0.6	-2.1
C[C@@H]1CN([C@@H](C)CO)C(=O)CCCn2nncc2CO[C@@H]1CN(C)S(=O)(=O)c1ccc(C#N)cc1	1&-1	3&3	-4.1&0.4	-4.4&-1.8
C[C@H]1CN([C@@H](C)CO)C(=O)c2cc(NC(=O)Nc3cccc4ccccc34)ccc2O[C@@H]1CN(C)Cc1ccc(C(=O)O)cc1	-2	1	-0.9	2.4
Cc1ccccc1S(=O)(=O)NCC[C@H]1CC[C@H](NC(=O)C2CCCC2)[C@H](CO)O1	2	2	1.8	0.5
C[C@H]1CN([C@@H](C)CO)C(=O)Cc2cc(NC(=O)CCC(F)(F)F)ccc2O[C@@H]1CN(C)C(=O)Nc1ccc(F)cc1	5	10	-1.9	-3.8
O=C(C1CC1)N1[C@@H](CO)[C@@H]2c3ccccc3N(S(=O)(=O)c3ccccc3)C[C@@H]21	-3	9	0.8	-2.1
C[C@@H]1CCCCO[C@@H](CN(C)C(=O)Nc2ccccc2)[C@@H](C)CN([C@H](C)CO)C(=O)c2cc(NC(=O)Nc3ccc4c(c3)OCO4)ccc2O1	8	10	0.8	-0.3
Cc1ccc(C)c(CC(=O)N2CCCC(c3cc(C(=O)NCc4cccnc4)no3)C2)c1 (configuration not stated)	3	4	0.4	0.0
COc1ccc(S(=O)(=O)N[C@H]2CC[C@H](CCn3cc(-c4ccccc4F)nn3)O[C@@H]2CO)cc1	-9	-20	2.3	1.7
CC1(c2ccccc2Cl)NC(=O)N(CC(=O)N2CCc3ccccc3C2)C1=O (configuration not stated)	-3	-1	0.0	2.0
C/C=C/c1ccc([C@H]2[C@@H](CO)N(CCC)[C@H]2CN(CC)C(=O)c2ccccn2)cc1	-2	9	-3.7	-0.2
O=C(C[C@H]1C[C@@H]2c3cc(NC(=O)CC4CC4)ccc3O[C@@H]2[C@H](CO)O1)NCC1CC1	-3	-4	-2.2	1.4
C[C@@H]1CN([C@H](C)CO)C(=O)c2cc(NC(=O)CCCN(C)C)ccc2O[C@@H](C)CCCCO[C@H]1CN(C)S(=O)(=O)c1ccc(F)cc1	0	-1	1.7	11
C[C@H](CO)N1C[C@H](C)[C@@H](CN(C)C(=O)C2CCC2)Oc2cc(-c3cccnc3)ccc2S1(=O)=O	2	-1	-2.9	-2.2
C/C=C/c1ccc([C@@H]2[C@H](C#N)N(C(=O)NC3CCCCC3)[C@H]2CO)cc1	5	-11	-3.1	0.0
CCC(=O)N1C[C@H](C)[C@H](OC)CN(C)C(=O)c2cc(NC(=O)NC3CCCC3)ccc2OC[C@@H]1C	5	4	-1.4	-0.1
CCCC#Cc1ccc([C@@H]2[C@H](CO)N3C(=O)CN(S(=O)(=O)Cc4ccccc4)C[C@@H]23)cc1	-32	-59	6.5	2.8
CC(=O)N(C)C[C@@H]1Oc2cc(C#C[C@H](C)O)ccc2S(=O)(=O)N([C@H](C)CO)C[C@H]1C	4	10	-4.8	-2.4
CCCC#Cc1cnc2c(c1)C(=O)N([C@@H](C)CO)C[C@H](C)[C@@H](CN(C)C(=O)c1ccc3c(c1)OCO3)O2	4	-5	4.1	2.4
CCNC(=O)[C@H]1[C@H](CO)[C@H]2Cn3c(ccc(-c4cccnc4)c3=O)[C@@H]1N2Cc1ccccc1	5	-3	0.3	0.7
COc1ccc(-c2ccc3c(c2)[C@H]2[C@H](CCN2C(=O)C2CC2)[C@@H](CO)N3C)cc1	-2	1	-0.9	?
O=S(=O)(Cc1ccccc1)N1CCCCN2[C@H](CO)[C@H](c3ccc(-c4ccc(F)cc4)cc3)[C@H]2C1	-56	-57	-11	-2.6
CCc1nc2c(OCCOc3ccc(F)cc3)cccn2c1N(C=O)Cc1ccccc1	-61	-72	-8.0	1.8
C[C@@H]1CN([C@H](C)CO)C(=O)c2cc(NS(C)(=O)=O)ccc2O[C@H]1CN(C)CC1CC1	5	5	-2.8	-7.2
COc1ccc(S(=O)(=O)N(C)C[C@@H]2Oc3cc(C#CC4CCCCC4)ccc3S(=O)(=O)N([C@H](C)CO)C[C@H]2C)cc1	4	-5	-1.3	1.7
CO[C@@H](C(=O)N(C)C[C@H]1OCc2ccccc2-c2ccccc2C(=O)N([C@H](C)CO)C[C@H]1C)c1ccccc1	5	-2	2.0	-5.2
O=C(C[C@H]1CC[C@@H]2[C@H](COC[C@@H](O)CN2C(=O)c2cccnc2)O1)NC1Cc2ccccc2C1	4	13	21	-1.5
COc1ccc(C(O)c2nc(-c3ccccc3)cs2)cc1 (configuration not stated)	0	-13	-2.6	-3.0
C/C=C/c1ccc(C2[C@@H]3CN(C(=O)Nc4ccccc4OC)C[C@H]2N3)cc1 (some centres not stated)	8&0	13&7	-1.0&0.8	-3.8&0.3
Cc1ccc(S(=O)(=O)N2CCOCC2)cc1NC(=O)COC(=O)c1ccc(Br)o1	3	2	-3.1	2.5
Cc1ccccc1S(=O)(=O)N1[C@H](C#N)[C@H](c2ccc(-c3ccc(F)cc3)cc2)[C@H]1CO	2	2	-0.4	-0.5
C[C@H]1CN([C@@H](C)CO)C(=O)c2cc(/C=C/c3ccccc3)cnc2O[C@@H]1CN(C)C(=O)Cc1cccnc1	2	17	-0.1	-1.2
C[C@H]1CN([C@@H](C)CO)C(=O)c2cc(NC(=O)Cc3ccccc3)ccc2O[C@H]1CN(C)Cc1ccncc1	-3	6	1.5	0.2
CO[C@H]1CN(C)C(=O)c2cc(C#N)ccc2OC[C@H]2O[C@@H](CC[C@H]2OC)CCN(C)C(=O)[C@H]1C	1	-1	-0.4	-7.8

One compound at a time, as listed above:
`CO[C@H]1CN(C)C(=O)c2cc(C#N)ccc2OC[C@H]2O[C@@H](CC[C@H]2OC)CCN(C)C(=O)[C@H]1C` reads rRNA inh HTS = 1; rRNA inh HTS OD600 = -1; rRNA inh HTS RFP = -0.4; MLL AF4-AF9 inh = -7.8
`COc1ccc(C(O)c2nc(-c3ccccc3)cs2)cc1` (configuration not stated) reads rRNA inh HTS = 0; rRNA inh HTS OD600 = -13; rRNA inh HTS RFP = -2.6; MLL AF4-AF9 inh = -3.0
`Cc1ccccc1S(=O)(=O)N1[C@H](C#N)[C@H](c2ccc(-c3ccc(F)cc3)cc2)[C@H]1CO` reads rRNA inh HTS = 2; rRNA inh HTS OD600 = 2; rRNA inh HTS RFP = -0.4; MLL AF4-AF9 inh = -0.5

Remaining list, next part.
SMILES	rRNA inh HTS	rRNA inh HTS OD600	rRNA inh HTS RFP	MLL AF4-AF9 inh
COCCNc1nc(NCCN2CCNC2=O)c2sccc2n1	1	10	-4.4	-1.5
C[C@H]1CN([C@@H](C)CO)C(=O)Cc2cc(NC(=O)Nc3cccc4ccccc34)ccc2O[C@@H]1CN(C)C	1	1	0.7	6.0
O=C(NCC[C@H]1CC[C@H](NC(=O)C2CCCCC2)[C@@H](CO)O1)Nc1ccc(Cl)cc1	-16	-16	6.6	10
COc1ccc(S(=O)(=O)N(C)C[C@@H]2OCCCC[C@@H](C)Oc3ccc(NC(=O)c4ccccc4)cc3C(=O)N([C@@H](C)CO)C[C@H]2C)cc1	-4	-2	-0.6	1.7
C[C@H]1CN([C@@H](C)CO)C(=O)c2cccc(NS(C)(=O)=O)c2O[C@H]1CN(C)Cc1ccncc1	-3	2	-0.2	2.2
CC(C)NC(=O)Nc1ccc2c(c1)C(=O)N([C@H](C)CO)C[C@@H](C)[C@@H](CN(C)C(=O)NC(C)C)OCCCC[C@H](C)O2	1	6	-2.3	-1.5
Cc1noc(C)c1NC(=O)N(C)C[C@H]1Oc2ccc(NS(=O)(=O)c3ccccc3)cc2CC(=O)N([C@@H](C)CO)C[C@@H]1C	-3	1	-2.1	-1.1
COc1cccc(-c2ccc3c(c2)[C@@H]2[C@@H](CCN2C(=O)NC2CCCCC2)[C@H](CO)N3C)c1	-1	-12	2.2	22
COc1cccc(CN2[C@@H](CO)[C@H](c3ccccc3)C23CN(C(=O)C2CCOCC2)C3)c1	0	-2	0.6	-2.6
O=C(C[C@@H]1CC[C@@H](NC(=O)C2CCC2)[C@H](CO)O1)NC1CCC1	0	0	-1.0	-2.8
COCC(=O)N(C)C[C@@H]1Oc2ncc(C#Cc3ccccc3OC)cc2C(=O)N([C@@H](C)CO)C[C@@H]1C	4	-2	-1.2	-3.6
CCC(=O)N1C[C@H]2[C@@H](c3ccccc31)[C@H](CO)N2Cc1ccccc1F	2	-5	-1.8	-1.2
CCCNC(=O)Nc1ccc2c(c1)C(=O)N(C)C[C@@H](OC)[C@@H](C)CN(C(=O)C1CCCCC1)[C@@H](C)CO2	3	0	0.7	3.5
C[C@H](CO)N1C[C@H](C)[C@@H](CN(C)Cc2ccc3c(c2)OCO3)Oc2ncc(/C=C/c3ccccc3)cc2C1=O	-2	-11	22	26*
C[C@@H]1CN([C@@H](C)CO)C(=O)c2cccc(NC(=O)Nc3ccc(C(F)(F)F)cc3)c2O[C@@H]1CN(C)Cc1ccncc1	-3	-7	-1.1	10
O=C(C[C@H]1CC[C@@H](NC(=O)Nc2ccc(C(F)(F)F)cc2)[C@@H](CO)O1)NCc1cc(F)cc(F)c1	-6	-29	17	2.0
C[C@H]1CN([C@@H](C)CO)C(=O)c2cc(NC(=O)CCCCCC(=O)Nc3ccccc3N)ccc2O[C@H]1CN(C)Cc1ccc(Cl)c(Cl)c1	-16	-29	9.4	0.7
COc1ccc(CN(C)C[C@@H]2Oc3ccc(NS(=O)(=O)c4cn(C)cn4)cc3CC(=O)N([C@@H](C)CO)C[C@H]2C)cc1	4	8	-1.0	1.7
O=C(C1CCCC1)N1C[C@@H]2[C@H](c3ccccc31)[C@H](CO)N2C(=O)c1ccccc1	1	3	-2.4	1.7
C[C@@H]1CN([C@H](C)CO)C(=O)c2cc(NC(=O)Cc3ccccc3)ccc2O[C@@H](C)CCCCO[C@@H]1CN(C)C(=O)Nc1cccc2ccccc12	-5	-3	-0.2	1.1

MLL AF4-AF9 inh, entries above that show a hit
SMILES	rRNA inh HTS	rRNA inh HTS OD600	rRNA inh HTS RFP	MLL AF4-AF9 inh
C[C@H](CO)N1C[C@H](C)[C@@H](CN(C)Cc2ccc3c(c2)OCO3)Oc2ncc(/C=C/c3ccccc3)cc2C1=O	-2	-11	22	26*

Some of these compounds in order of their number in rRNA inh HTS RFP, high to low.
SMILES	rRNA inh HTS	rRNA inh HTS OD600	rRNA inh HTS RFP	MLL AF4-AF9 inh
C[C@H]1CCCCO[C@H](CN(C)S(=O)(=O)c2ccc(Cl)cc2)[C@@H](C)CN([C@@H](C)CO)C(=O)c2cc(NC(=O)CCC(F)(F)F)ccc2O1	1	3	2.0	-0.9
COC(=O)C[C@H]1CC[C@H]2[C@@H](COc3ccc(NC(=O)C4CCOCC4)cc3C(=O)N2C)O1	0	-1	1.0	-3.0
C[C@H](CO)N1C[C@H](C)[C@@H](CN(C)C(=O)C2CCC2)Oc2cc(-c3cccnc3)ccc2S1(=O)=O	2	-1	-2.9	-2.2

Later entries
SMILES	rRNA inh HTS	rRNA inh HTS OD600	rRNA inh HTS RFP	MLL AF4-AF9 inh
C[C@H]1CN([C@@H](C)CO)C(=O)Cc2cc(NS(=O)(=O)c3cccs3)ccc2O[C@H]1CN(C)C(=O)Nc1ccccc1	5	3	-1.0	-4.4
COCC#Cc1cnc2c(c1)C(=O)N([C@@H](C)CO)C[C@H](C)[C@@H](CN(C)C(=O)NC1CCCC1)O2	4	8	-0.6	-9.0
COc1ccccc1-c1ccc2c(c1)C(C)(Cc1ccc(Cl)c(Cl)c1)C(=O)N2 (configuration not stated)	4	23	2.6	-3.1
C[C@@H]1CN([C@H](C)CO)C(=O)c2cc(NS(=O)(=O)c3ccc(Cl)cc3)ccc2O[C@@H](C)CCCCO[C@@H]1CN(C)C(=O)c1ccccc1	3	-5	1.4	-2.3
Cc1ccc2nc(Cl)cc(=O)n2c1	11	6	-1.5	-6.5
CN(C)CC(=O)N1[C@@H]2Cn3c(ccc(-c4ccncc4)c3=O)[C@H]1[C@@H](C(=O)NC1CCC1)[C@@H]2CO	2	-1	1.0	-2.7
C[C@@H]1CN([C@H](C)CO)C(=O)c2cc(NC(=O)CCC(F)(F)F)ccc2O[C@H]1CN(C)C(=O)Nc1ccc(C(F)(F)F)cc1	-5	0	-0.1	-1.9
